From PubChem BioAssay
Hsc70: small molecules displacing fluorescent ligand from Hsc70 – biochemical, fluorescence polarization, primary screen (AID 568); 83,000 tested, under 10 active; displacement, % at 20 µM, or IC50 in µM where a hit was titrated; Hsc70 fluorescence polarization, probe displacement; higher % means a stronger effect; strong numbers were not always called active;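 active = displacement above 50% without optical interference and an IC50 on retest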;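 also: ATPase domain with a fluorescein-tagged ATP probe; 0% = vehicle and 100% = excess ADP; read after one hour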
WNV NS2B-NS3 inh: blocks West Nile virus NS2B-NS3 protease activity; AID 577; z-score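 (tested at a level between 10 and 100 µM)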; 65,000 compounds, 0.18% hits; WNV NS2B-NS3 protease, fluorogenic substrate Ex360/Em465; stronger effect = lower value;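 active = z-score at -3 or under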;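 also: score is relative to mean and spread of the compound wells of a plate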
Target sequence (P06935 1371-1501 limits assumed): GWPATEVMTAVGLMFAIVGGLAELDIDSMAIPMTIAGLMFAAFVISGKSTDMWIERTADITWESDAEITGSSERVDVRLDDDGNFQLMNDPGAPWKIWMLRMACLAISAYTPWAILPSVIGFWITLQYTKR
Target sequence (P06935 1502-1679 limits assumed): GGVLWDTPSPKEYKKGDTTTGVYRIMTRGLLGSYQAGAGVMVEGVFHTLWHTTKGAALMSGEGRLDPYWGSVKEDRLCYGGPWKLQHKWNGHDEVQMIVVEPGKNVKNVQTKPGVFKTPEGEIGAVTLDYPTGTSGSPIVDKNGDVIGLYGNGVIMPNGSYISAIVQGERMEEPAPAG
MT1-MMP promoter: MT1-MMP gene expression reporter suppression – cell-based, luciferase reporter, luminescence (AID 618). MT1-MMP promoter luciferase reporter cells, luminescence. calls from a first round at 10 µM; hits with a dose series show EC50 in µM. 87,000 compounds, 0.62% hits;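 active = over half of the reporter light lost at 10 µM or EC50 under 50 µM; inactive = the rest and hits that failed the dose series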;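 also: actives suppress MT1-MMP promoter-driven transcription so potencies describe inhibitors; HT1080 fibrosarcoma cells; overnight exposure; toxic or luciferase-blocking compounds were not removed from the actives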
* hit, by the source's call; i = inactive; / = no result given; + = active, no number.

SMILES | Hsc70 | WNV NS2B-NS3 inh | MT1-MMP promoter
O=C1c2ccccc2NC2CCCCCN12 (stereo unspecified) | 4.7% | 0.59 | i
CC1CSc2ccccc2NC1=S (stereo unspecified) | 4.6% | / | i
O=C1CCCC(O)=C1C=Nc1ccc(O)cc1 | 7.8% | 0.31 | i
O=C(COc1ccc(Cl)cc1Cl)Nc1ccccn1 | -1.5% | 0.11 | +
O=S(=O)(NC12CC3CC(CC(C3)C1)C2)c1ccc(F)cc1 | -1.3% | / | i
O=C(O)c1ccc(NS(=O)(=O)/C=C/c2ccccc2)cc1 | 8.5% | -0.84 | i
CCOC(=O)c1[nH]c2ccc(OC)cc2c1NC(=O)C(C)N1CCC2(CC1)OCCO2 (stereo unspecified) | -1.0% | -0.02 | i
Cc1coc(C)c1C(=O)CC1(O)C(=O)N(Cc2ccccc2)c2ccccc21 (stereo unspecified) | 8.3% | 0.89 | i
CCC(=O)Nc1sc2c(c1C#N)CC(C)(CC)OC2 (stereo unspecified) | 2.2% | / | i
Cc1nnc(NC(=O)C(C)Oc2ccc3c(C)cc(=O)oc3c2)s1 (stereo unspecified) | 2.4% | 1.2 | i
CC(C)CCn1nnnc1C(c1ccccc1)N1CCC(C(N)=O)CC1 (stereo unspecified) | 13% | 0.77 | i
c1ccc(C(c2ccccc2)N2CCN(c3nc4ccccc4n4cnnc34)CC2)cc1 | 6.3% | / | i
CCOC(=O)c1cc2sccc2n1CCCN1C(=O)c2ccccc2C1=O | -15% | -0.93 | i
O=C(c1cc2c(s1)CCC2)N1CCN(c2ccccc2)CC1 | 0.8% | / | i
O=C(CN1CCCCC1)Nc1ccc(F)c(Cl)c1 | 0.3% | 0.97 | i
O=C(NCc1cccs1)C1CC(=O)N(c2ccccc2)C1 (stereo unspecified) | 1.6% | -0.43 | i
CC(=O)Nc1ccc(S(=O)(=O)Nc2cccc(-c3nc4cc(C)ccc4o3)c2)cc1 | 0.5% | 0.3 | i
COc1ccccc1NC(=O)c1cccc(S(=O)(=O)N2CCOCC2)c1 | -9.4% | -0.62 | i
COc1ccc(CNC(=O)CN(c2cccc(OC)c2)S(C)(=O)=O)cc1 | -0.3% | -0.17 | i
COc1ccc(-c2nc(C#N)c(NCCN(C)C)o2)cc1 | 2.4% | 1.3 | i
COc1ccc(S(=O)(=O)CCC(=O)Nc2ccc(OC)cc2OC)cc1 | 0.3% | / | i
CCC1(CC)NC(=O)N(CC(=O)NCc2ccc3c(c2)OCO3)C1=O | -2.3% | / | i
COCCNc1oc(COc2cccc(C)c2)nc1C#N | 3.6% | -0.76 | i
CCOC(=O)c1c(C)[nH]c(C)c1C(=O)COC(=O)[C@@H]1CCCN1S(=O)(=O)c1ccc(Cl)cc1 | 0.3% | / | i
CN1CCc2c(c3ccccc3n2Cc2ccccc2)C1 | -0.8% | -0.04 | i
CCCS(=O)(=O)N1CCC(C(=O)N2CCCC2)CC1 | -11% | -0.42 | i
Nc1ccc(-c2cc(N)n(-c3ccccc3)n2)cc1 | -11% | 0.65 | i
Cn1c(CN2CCCCC2)nc2cc(NC(=O)c3ccccc3)ccc21 | -0.1% | -0.1 | i
CC(C)NC(=O)c1ccccc1NC(=O)C1COc2ccccc2O1 (stereo unspecified) | -0.7% | / | i
O=C(c1ccc(Cn2cc(Cl)cn2)cc1)N1CCN(c2ccccc2)CC1 | 3.8% | -0.2 | i
O=C(NCc1ccco1)Nc1ccc2nsnc2c1 | 0.1% | 0.85 | i
CCCC(=O)Nc1ccc(NC(=O)Cc2ccccc2)cn1 | -0.9% | -0.77 | i
Fc1cccc(NCc2ccoc2)c1 | 1.2% | 0.84 | i
O=C1c2ccccc2C(=O)C1c1nccc2ccccc12 | -39% | 0.66 | 1.8µM*
Cc1[nH]c2ccccc2c1C(=O)CN1CCCC1 | -8.4% | -1.1 | i
CCOC(=O)CNC(=O)CSc1nc(N)cc(N)n1 | 4.7% | 0.51 | i
Cn1c(=O)c2c(nc(N3CCCCC3)n2CCNC2=NCCC2)n(C)c1=O | 2.7% | -0.37 | i
Cc1ccc(-n2nc(C)c(C3C(C#N)=C(N)OC4=C3C(=O)CC(C)(C)C4)c2Cl)cc1 (stereo unspecified) | -1.0% | 0.05 | i
Cc1cccc(NC(=O)C2CCN(c3nccc(C)n3)CC2)c1 | 5.2% | 2.1 | i
CCOC(=O)N1CCN(CCC(=O)Nc2cc(OC)cc(OC)c2)CC1 | 2.3% | / | i
CC(C)OC(=O)CSc1nnc(-c2ccc(Cl)cc2Cl)n1N | -10% | -0.54 | i
COC(=O)c1cc2sccc2n1Cc1ccc(C)cc1 | -1.3% | 0.66 | i
CC1(C)CC(=O)C(C=NCCN2CCOCC2)=C(O)C1 | 2.9% | 1.3 | i
CC1=CCC(Cc2nc3ccccc3o2)C1(C)C (stereo unspecified) | -6.7% | -0.48 | i
COc1ccc(C2=NOC(C(=O)NCc3ccco3)C2)cc1 (stereo unspecified) | 5.1% | / | i

Seven entries already listed, arranged by SMILES length, largest number first:
SMILES | Hsc70 | WNV NS2B-NS3 inh | MT1-MMP promoter
Cc1coc(C)c1C(=O)CC1(O)C(=O)N(Cc2ccccc2)c2ccccc21 (stereo unspecified) | 8.3% | 0.89 | i
CCC1(CC)NC(=O)N(CC(=O)NCc2ccc3c(c2)OCO3)C1=O | -2.3% | / | i
O=C(c1cc2c(s1)CCC2)N1CCN(c2ccccc2)CC1 | 0.8% | / | i
COc1ccc(-c2nc(C#N)c(NCCN(C)C)o2)cc1 | 2.4% | 1.3 | i
CCCS(=O)(=O)N1CCC(C(=O)N2CCCC2)CC1 | -11% | -0.42 | i
Cc1[nH]c2ccccc2c1C(=O)CN1CCCC1 | -8.4% | -1.1 | i
Fc1cccc(NCc2ccoc2)c1 | 1.2% | 0.84 | i

Going on with the list:
SMILES | Hsc70 | WNV NS2B-NS3 inh | MT1-MMP promoter
CCN(CCO)C(=O)CC(c1ccccc1)c1cc(Br)ccc1O (stereo unspecified) | 3.1% | 0.7 | i
O=P(CO)(Cc1ccccc1)Cc1ccccc1 | -0.9% | -0.94 | i
COCCn1c(CN(Cc2ccccc2)Cc2ccccc2)nc2c1c(=O)n(C)c(=O)n2C | 0.3% | 0.73 | i
Cc1ccc(CN2C(=O)/C(=C3\SC(N4CCOCC4)=NC3=O)c3cc(Br)ccc32)cc1 | -3.4% | -0.22 | i
CC(C)NS(=O)(=O)c1ccc(OCC(=O)Nc2cccc3ccccc23)cc1 | 4.5% | / | i
O=C(Cn1cnc2c(nnn2-c2ccccc2)c1=O)NCc1ccco1 | -0.3% | 0.81 | i
CCOC(=O)c1sc(-c2ccccc2)cc1NC(=O)CSc1nnnn1C | -5.1% | -0.42 | i
CSc1cccc(NC(=O)c2nnn(Cc3ccccc3)c2N)c1 | 0.6% | -0.64 | i
O=C(CSc1nc2c([nH]c3ccccc32)c(=O)n1-c1ccccc1)N1CCOCC1 | 2.8% | -0.69 | i
CC1=CC(C)(C)N(C(=O)C(C)N2C(=O)c3ccccc3C2=O)c2c(C)cc(C)cc21 (stereo unspecified) | -2.3% | / | i
CCOC(=O)c1ccccc1NC(=O)CN(c1ccccc1OC)S(C)(=O)=O | -0.1% | 1.4 | i
CC1=C(C#N)C(NC(=O)c2ccco2)(C(F)(F)F)C(=O)N1 (stereo unspecified) | -1.3% | 0.06 | i
O=C(CN1CCC2(CC1)OCCO2)c1c[nH]c2ccccc12 | -4.2% | -0.46 | i
O=C(Nc1sc2c(c1C(=O)NC1CC1)CCCCCC2)c1ccco1 | -4.4% | 0.31 | i
NC(=NC(=O)c1ccccc1)C1=C(O)CCC1=O | 2.4% | -0.78 | i
CC(O)CNc1nc2ccccc2n1-c1ncnc2sc3c(c12)CCC3 (stereo unspecified) | 4.9% | 0.0091 | i
CCOc1ccc(S(=O)(=O)N(CC(=O)Nc2cc(C)on2)Cc2ccccc2Cl)cc1 | -2.1% | 0.75 | i
COc1ccccc1N1CCN(C(=O)c2ccc(N3CCCC3=O)cc2)CC1 | 3.2% | -0.64 | i
N#Cc1c(N2CCCCC2)nc(N)c2c(N)nc3c(c12)CC(c1ccccc1)O3 (stereo unspecified) | 2.4% | / | i
CCOC(=O)N1CCC(NS(=O)(=O)c2cc3c(cc2C)NC(=O)CO3)CC1 | -2.0% | -0.74 | i
CCn1c(-c2cccc(Br)c2)n[nH]c1=S | -8.8% | -1.3 | i
COc1ccc(NC(=O)CN(Cc2ccccc2)S(C)(=O)=O)cc1 | -0.9% | / | i
COc1ccc(F)cc1S(=O)(=O)NC1CCCCCC1 | 1.3% | 0.09 | i
Nc1nnnn1/N=C/c1cccs1 | 3.4% | 0.44 | i
O=C(CCCC(=O)OCC(F)(F)C(F)F)Nc1ccc(NC(=O)CCCC(=O)OCC(F)(F)C(F)F)cc1 | -5.0% | / | i
C=CCSc1nnnn1-c1ccc(OC)cc1 | 4.4% | / | i
Cc1ccnc(N2CCN(C(=O)CSc3nc4ccccc4nc3N3CCCCC3)CC2)c1 | -4.8% | -0.19 | i
N#Cc1c(N)n(C2CCCCC2)c2nc3ccccc3nc12 | -12% | -0.42 | i
Cc1ccc(S(=O)(=O)N2CCCN(S(=O)(=O)C3CCS(=O)(=O)C3)CC2)cc1 (stereo unspecified) | -5.9% | 0.33 | i
C=CCn1c(Cc2cccs2)nnc1SCC(=O)c1ccc(F)cc1 | -1.1% | 0.14 | i
Cc1ccc2[nH]c(=O)c(CN(CCCO)S(=O)(=O)c3cccc4nsnc34)cc2c1 | 0.2% | 2.3 | i
O=C(NCCN1CCOCC1)Nc1ccc(Cl)cc1 | 6.0% | -0.4 | i
O=C(COc1ccc(S(=O)(=O)N2CCCC2)cc1Cl)NCc1ccco1 | -3.8% | -0.71 | i
N#Cc1c(/N=C/N2CCOCC2)sc2c1CCCCC2 | -6.6% | 0.34 | i
Cc1ccc(C)c2[nH]c(=O)c(CCNC(=O)c3ccc(S(=O)(=O)N(C)C)cc3)cc12 | -2.2% | -0.35 | i
CC(CCc1ccccc1)NC(=O)c1cccnc1 (stereo unspecified) | 3.6% | -0.59 | i
Cn1c(=O)c2c(ncn2Cc2ccccc2)n(C)c1=O | 0.8% | / | i
CCOC(=O)N1CCC(NS(=O)(=O)c2ccc3c(c2)oc(=O)n3C)CC1 | -4.3% | -0.56 | i
CCCCN(CCCC)Cc1cc2ccccc2c2c1COC2 | -2.1% | / | i
COC(=O)c1cccc(CSc2nnc(-c3ccco3)n2-c2ccccc2)c1 | 2.3% | 1.6 | i
CCC1(C)Nc2ccccc2C(=O)N1O (stereo unspecified) | -0.2% | 0.41 | i
COc1ccc(OC)c(C2=Nn3c(nnc3-c3cc(OC)c(OC)c(OC)c3)SC2)c1 | 0.5% | 0.38 | i
COc1cccc(OCCN2CCN(c3ncnc4c3cnn4-c3ccccc3)CC2)c1 | -2.4% | -0.89 | i
Cc1noc(C)c1COc1ccc(C(=O)OCC(=O)Nc2ccc3c(c2)OCO3)cc1 | 4.4% | / | i
CCN=C1SC(C(N)=O)CC(=O)N1CC (stereo unspecified) | -2.1% | 0.64 | i
Cc1nnc(SCC(=O)Nc2nccs2)s1 | -5.0% | 0.9 | i
OC1(c2ccccc2F)CCN(Cc2nnc(-c3ccccc3)o2)CC1 | -14% | -0.59 | i
CCCn1nc(C(=O)OCC(=O)c2ccc3c(c2)NC(=O)CO3)c2ccccc2c1=O | 3.9% | -0.85 | i
Cc1ccc2nc(C3CCN(CC(=O)N4CCCCCC4)CC3)[nH]c2c1 | 3.2% | -0.43 | i
CN(c1ccccc1)S(=O)(=O)c1ccc(C(=O)OCC(=O)NCc2ccco2)cc1 | -8.2% | 0.52 | i
CCOc1cc(N2CCOCC2)c(OCC)cc1NC(=O)C(NC(=O)c1ccco1)C(C)C (stereo unspecified) | 4.4% | -0.05 | i
Cc1ccccc1-n1nc(C(=O)O)c(C)c(C#N)c1=O | 8.8% | -0.6 | i
COc1cc2c(C)nc(C)c(C#N)c2cc1OC | 0.1% | -0.23 | i
CCN(CC)c1ccc(NC(=O)CSc2nc3ccccc3c(=O)[nH]2)cc1 | 0.4% | -0.92 | i
O=C1SC(SCc2ccccc2)=N/C1=C\c1ccco1 | -14% | -0.91 | i
COc1ccc(N(C(=O)c2ccc(Br)o2)C2C=CS(=O)(=O)C2)cc1 (stereo unspecified) | 2.8% | 1 | i
CC(=O)Nc1ccc(S(=O)(=O)Nc2ccc(N3CCOCC3)cc2)cc1 | 1.9% | 0.77 | i
Clc1ccccc1CSC1=NCCCN1 | -0.2% | / | i
Cc1ccc(S(=O)(=O)NC2=NCN(Cc3cccnc3)CN2)cc1 | 5.7% | 0.31 | i
Cc1c(C(=O)Nc2ccncc2)oc2c1C(=O)CC(C)(C)C2 | 4.1% | -0.17 | i

Some values from the entries so far.
For Hsc70, `CCOC(=O)c1c(C)[nH]c(C)c1C(=O)COC(=O)[C@@H]1CCCN1S(=O)(=O)c1ccc(Cl)cc1` is listed with 0.3%
For Hsc70, `CCN(CCO)C(=O)CC(c1ccccc1)c1cc(Br)ccc1O` (stereo unspecified) is listed with 3.1%

Next compounds:
SMILES | Hsc70 | WNV NS2B-NS3 inh | MT1-MMP promoter
CC(=O)C1=C(O)C(=O)N(c2ccc(S(N)(=O)=O)cc2)C1c1ccccc1F (stereo unspecified) | -2.9% | -0.26 | i
O=C(CN1CCOCC1)Nc1ccccc1Cl | -4.3% | / | i
CCCCOc1ccc(C(=O)N2CCCC2)cc1 | 2.2% | / | i
Brc1c(CSc2nc3ccccc3o2)nc2ncccn12 | -2.7% | -0.28 | i
